TRPML1 inh – qHTS for Inhibitors of the Human Mucolipin Transient Receptor Potential 1 (TRPML1); Mucolipin-1 (Homo sapiens), Q9GZU1; TRPML1-inducible cells, Ca2+ dye fluorescence, FDSS; hits give low values; inhibition of EC80 agonist-evoked calcium signal; activity change, negative = inhibition, % (no concentration beside the values); hit rate 0.02% among 390,000; AID 624415, 2012; in the data active means activity change below about -50%; inconclusive means about -30% to -50%; inactive means above about -30%;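 note: stimulus is agonist 54-4 at its EC80 concentration; % is set by controls: 0 for no effect and ±100 for the full control effect; compound concentration not given in the record; the text of the record puts the active cut at -80%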
Target sequence (Q9GZU1 whole entry, looked up): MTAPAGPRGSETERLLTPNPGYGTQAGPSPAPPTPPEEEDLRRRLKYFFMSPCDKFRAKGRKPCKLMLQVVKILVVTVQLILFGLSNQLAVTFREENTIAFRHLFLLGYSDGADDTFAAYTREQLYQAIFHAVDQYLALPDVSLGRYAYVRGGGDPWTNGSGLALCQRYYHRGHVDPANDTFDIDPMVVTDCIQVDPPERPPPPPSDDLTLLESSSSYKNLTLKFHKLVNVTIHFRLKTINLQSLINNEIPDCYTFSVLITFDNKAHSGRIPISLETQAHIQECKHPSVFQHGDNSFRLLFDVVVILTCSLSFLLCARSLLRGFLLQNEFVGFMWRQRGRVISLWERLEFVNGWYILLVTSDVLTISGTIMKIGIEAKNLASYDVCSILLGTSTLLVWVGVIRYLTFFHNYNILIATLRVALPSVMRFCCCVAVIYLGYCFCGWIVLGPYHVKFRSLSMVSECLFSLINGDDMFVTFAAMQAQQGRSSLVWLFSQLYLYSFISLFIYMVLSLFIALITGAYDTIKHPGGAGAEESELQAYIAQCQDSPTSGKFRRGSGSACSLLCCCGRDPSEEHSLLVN
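Calcium fluorescence in TRPML1-DL cells induced overnight with Tet: a 110 s read after compound pin addition, then a 110 s antagonist read after challenge with 54-4 at 4 uM final (EC80).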
Menin-MLL FL inh – qHTS Assay for Inhibitors Targeting the Menin-MLL Interaction in MLL Related Leukemias: Competition With Fluorescein Labeled MLL-derived Peptide | FP activity change, % at 61.4 µM | 290,000 tested, under 10 active | Fluorescence polarization, fluorescein-MLL peptide displacement from menin; inconclusive = falling polarisation curve, or a change in total fluorescence; inactive = total fluorescence flat and polarisation flat or rising; no compound was filed as active; the % refers to the polarisation; negative = inhibition;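 note: % of control where 0% means no effect; inhibitors lower the polarisation; unlabelled MLL peptide was the positive control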
ClpP mod – qHTS Assay for Activators of ClpP | purified B. subtilis ClpP, FRET peptide cleavage, 20 min | hit rate 1.9% among 340,000 | Potency, µM (titrated, usually from 57.5 µM), inactives show at the top dose activity change, negative = active; active = well fitted falling curve with a large enough effect; inconclusive = small, poorly fitted or top-dose-only effect; inactive = no such curve, though single readings can be large or run the other way; note: potency is the fitted concentration of half-maximal effect; the source files actives as falling curves though it sought activators and does not explain the sign; nearly all actives have a fitted effect of over 65% in size; many hits overshoot -100%
Target sequence (P80244 whole entry, looked up): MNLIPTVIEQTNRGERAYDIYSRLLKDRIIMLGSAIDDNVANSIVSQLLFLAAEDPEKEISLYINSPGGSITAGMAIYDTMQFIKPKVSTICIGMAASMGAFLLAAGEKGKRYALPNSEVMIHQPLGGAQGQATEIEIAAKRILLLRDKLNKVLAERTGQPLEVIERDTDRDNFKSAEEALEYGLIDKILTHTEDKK
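Purified B. subtilis ClpP, 10 microg/mL final in Tris/HCl pH8 with KCl, BSA, glycerol and Tween-20, cleaved an Abz/nitrotyrosine-quenched decapeptide. Fluorescence (ex 320, em 430) was read at 0 and 20 min at room temperature. Delta was normalized to 5.8 microM ADEP and DMSO/no-enzyme controls.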
gsp antag – qHTS for Antagonists of gsp, the Etiologic Mutation Responsible for Fibrous Dysplasia/McCune-Albright Syndrome: qHTS | AID 624288, 2012 | gsp-mutant cells, cAMP HTRF, 30 min; control for the full effect not named in the record | Potency, µM (series often up to 76.9 µM), inactives show at the highest dose activity change, negative = inhibition, actives largely listed as inhibitors | hit rate 0.4% among 340,000; active = falling curve of any shape with a large fitted effect; inconclusive = falling curve, mostly with a smaller effect; inactive = flat or rising curve; cell line not stated here;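 note: intracellular cAMP measured with PDE inhibitor Ro 20-1724 present during compound exposure; potency is the fitted concentration of half-maximal effect; % is set by controls: 0 for no effect and ±100 for the full control effect; nearly all actives have a fitted effect of over 65% in size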
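Measurement of cellular cAMP by homogeneous time-resolved fluorescence following a 30 min compound exposure at 37C. The PDE inhibitor […] was present throughout; the assay buffer was DPBS with 0.05% BSA and 0.005% Tween 20.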
TRPV1 potentiator – HTS Assay for Compounds that Act as Potentiators of the Vanilloid Receptor 1; potentiation, % at 8.33 µM; Transient receptor potential cation channel subfamily V member 1 (Homo sapiens), Q8NER1; hit rate 0.02% among 320,000; TRPV1-expressing cells, Fluo-8 calcium influx, capsaicin EC20 potentiation; host cell line not named in the record; control for the full effect not named in the record; active means potentiation above 80%; inconclusive means 30% to 80%; inactive means below 30%; note: 0% is about no effect
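Cells expressing TRPV1 were dye-loaded with Fluo-8 and read kinetically: 10 s baseline, 3 min after compound (agonist portion), then 2 min after EC20 capsaicin (allosteric enhancer portion). Calcium-bound dye fluorescence at 480/520 nm.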
Sfp inh – qHTS Assay for Inhibitors of Bacillus subtilis Sfp phosphopantetheinyl transferase (PPTase). Biochemical Sfp PPTase activity, qHTS. hit rate 3.5% among 310,000. AID 1490, 2009. 4'-phosphopantetheinyl transferase ffp (Bacillus subtilis), Q9F4F7. Potency, µM, without a hit: max response, negative = inhibition, most hits filed as inhibitors; active = well fitted inhibition curve with a large enough effect; inconclusive = small, poorly fitted or top-dose-only effect, or another doubt; inactive = no such curve, though single readings can be large or run the other way;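 note: the enzyme is Sfp with the accession as filed and its product quenches rhodamine fluorescence; potency is the fitted concentration of half-maximal effect; 0% = enzyme reaction without inhibitor and -100% = no enzyme wells; top concentration of the series not given in the record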
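Buffer: 50 mM Hepes-Na pH 7.6, 10 mM MgCl2, 0.01% Nonidet P-40, 0.01% BSA. Enzyme 15 nM, pre-exposed to compound 15 min; substrates then added and fluorescence change tracked over 30 min.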
gsp agonist – qHTS for Agonist of gsp, the Etiologic Mutation Responsible for Fibrous Dysplasia/McCune-Albright Syndrome: qHTS | AID 624287, 2012 | gsp mutant cells, cAMP HTRF, 30 min; control for the full effect not named in the record | Potency, µM (series often up to 76.9 µM), without a hit: top-dose activation (cAMP increase), hits mostly activators | hit rate 0.13% among 340,000; active = well fitted activation curve with a large enough effect; inconclusive = small, poorly fitted or top-dose-only effect, or another doubt; inactive = no such curve, though single readings can be large or run the other way; cell line not stated here;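 note: phosphodiesterase inhibitor Ro 20-1724 added with compounds to block cAMP breakdown; potency is the fitted concentration of half-maximal effect; nearly all actives have a fitted effect of over 60% in size; about a fifth of the inactives were tested at one dose only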
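Cells stably selected in G418 were plated at 2000/well, grown 16-24 hr, then given compounds in DMSO with the PDE inhibitor […] (300 uM solution added) for 30 min at 37C; cAMP was read by HTRF.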
Starred values were filed as active, the others as inactive; ? = inconclusive; / = no result given; & = joins results of further samples; [ ] = remark or other dose.

Structure,TRPML1 inh,Menin-MLL FL inh,ClpP mod,gsp antag,TRPV1 potentiator,Sfp inh,gsp agonist
CN(CC(=O)Nc1ccc(Cl)cc1)CC(=O)Nc1ccc(C(N)=O)cc1,7,-2.6,1.9%,7%,12,5%,29%
COC(=O)C(C)Oc1ccc(-c2nccc(-c3ccccn3)n2)cc1 (stereo not given),9,-6.3,/,-3%,-23,-23%,-4%
CC(NC(=O)c1cc2c(s1)CS(=O)(=O)C2)c1ccccc1 (stereo not given),9,/,1.8%,4%,10,11%,?
CCn1nnnc1-c1ccc(OC)c(S(=O)(=O)NCCc2ccccc2)c1,12,2.0,-0.9%,-17%,-1,14%,29%
Cc1ccccc1C(=O)NC(NC(=S)Nc1ccc(S(N)(=O)=O)cc1)C(Cl)(Cl)Cl (stereo not given),-13,1.8,-1.7%,11%,-13,8%,-32%
O=C(Nc1ccc(NC(=O)C2CCCCC2)nc1)c1cccc(F)c1,7,-4.1,/,4%,-5,24%,?
CC(C)N(Cc1cn(C)nc1-c1cccc(Cl)c1)Cc1nccn1C,-2,-3.3,/,-4%,-5,-3%,-4%[15.4 µM]
Cc1c(Cl)cccc1NC(=O)CN1CCC(NC(=O)C2CCCCC2)CC1,35,1.4,0.8%,-1%,5,13%,-7%

The list goes on.
Structure,TRPML1 inh,Menin-MLL FL inh,ClpP mod,gsp antag,TRPV1 potentiator,Sfp inh,gsp agonist
C=CCn1c(SC)nnc1-c1ccc2ncccc2c1,-12,3.5,/,3%,-2,-1%,62%
Cc1cccc(N(C(=O)c2csnn2)C(C(=O)NC(C)(C)C)c2cccs2)c1 (stereo not given),3,6.0,-0.1%,3%,-12,8%,24%
COC(=O)c1cc(COC(=O)c2nc3nccc(C)n3n2)oc1C,9,0.4,/,2%,-11,10%,21%
Cc1cc(C)nc(SCc2nnc(SCC(=O)Nc3nccs3)n2Cc2ccco2)n1,-7,0.3,0.6%,-6%,4,2%,10%
COc1ccccc1N1CCN(C(=O)CCCn2nc(C)c([N+](=O)[O-])c2C)CC1,-6,0.1,/,-5%,-2,5%,1%[15.4 µM]
COc1ccccc1NC(=O)CSc1nc2nccnc2c(=O)n1Cc1cccs1,18,10,0.0%,4%,23,-5%,?
CN(C)c1cccc(NC(=O)CCc2ccccc2)c1,3,5.6,-11%,2%,-19,1%,-1%
COCC(=O)Nc1ccc(Br)c(C)c1,-7,-1.3,0.9%,-11%,3,24%,14%

The list goes on.
Structure,TRPML1 inh,Menin-MLL FL inh,ClpP mod,gsp antag,TRPV1 potentiator,Sfp inh,gsp agonist
Cc1ccc(S(=O)(=O)NC(=O)Nc2nc(-c3ccc(F)c(F)c3)cs2)cc1,-24,2.2,-2.6%,7%,12,6%,3%[15.4 µM]
COc1ccc(-c2c(C#Cc3ccsc3)c3cc(-c4ccc(OC)c(F)c4)ccc3n2C)cc1,21,/,4.2%,15%,-4,/,1%
CC(=O)c1cccc(-n2c(CCC(=O)O)ccc2-c2ccc(C)cc2)c1,17,2.5,-1.6%,?,3,-19%,-3%[15.4 µM]
O=C(NCCOC(=O)c1ccccc1)c1ccccc1,3,/,0.7%,9%,-13,/,-8%
COc1ccc(S(=O)(=O)N(C)CC(=O)N2CCN(C)CC2)cc1C,-10,0.5,-0.1%,8%,?,-2%,14%
Cc1ccc(N/C(CSC(N)=O)=N\S(=O)(=O)c2ccc(C)cc2)cc1,-15,-0.7,0.0%,-14%,0,12%,-25%
Cn1c(CNC(=O)c2ccco2)nnc1SCC(=O)N1c2ccccc2Sc2ccccc21,-14,4.4,-0.7%,-4%,7,-4%,3%
Nc1cc(=O)nc2cn[nH]n12,-3,/,-3.2%,/,/,/,15%

(continued)
Structure,TRPML1 inh,Menin-MLL FL inh,ClpP mod,gsp antag,TRPV1 potentiator,Sfp inh,gsp agonist
O=C(CNC(=O)COc1ccccc1)NCc1ccccc1F,9,0.3,-2.2%,6%,0,8%,1%
CC(C)(C)P(=O)(CO)c1ccccc1 (stereo not given),3,3.4,0.4%,-2%,2,6%,0%
COc1ccc(N2C(=O)NC(NS(=O)(=O)c3ccc(NC(C)=O)cc3)(C(F)(F)F)C2=O)cc1 (stereo not given),9&15,-2.1,0.6%&1.2%,8%,9,8%,1%[15.4 µM]
COc1ccc(OCC(O)CNC(=O)c2ccccc2C(=O)O)cc1 (stereo not given),3,3.3,0.5%,-3%,0,8%,4%
CC1(C)CC(C(=O)Nc2ccccc2)C(=O)O1 (stereo not given),10,/,/,9%,/,/,-2%[15.4 µM]
COC(=O)c1ccc(Sc2ccccc2NS(=O)(=O)c2ccc(OC)cc2)nc1,8,-3.2,0.9%,7%,5,7%,3%
CN(C)c1nc(N)nc(CSc2nnnn2-c2ccc(F)cc2)n1,4,1.9,1.0%,14%,-1,22%,8%
CC(=O)N1CCc2cc(S(=O)(=O)NCCN3CCC(C)CC3)ccc21,-3,0.7,2.1%,10%,4,7%,-3%

Going on with the list.
Structure,TRPML1 inh,Menin-MLL FL inh,ClpP mod,gsp antag,TRPV1 potentiator,Sfp inh,gsp agonist
S=C(c1ccccc1)N1CCN(c2ccccc2)CC1,-14,/,0.9%,-6%,/,/,13%[15.4 µM]
Cc1cc(OCCN2CC(C)OC(C)C2)ccc1[N+](=O)[O-] (stereo not given),9,-1.5,1.8%,-4%,14,-26%,0%
Cc1ccccc1-c1ccc(C(=O)Nc2cccc(F)c2)o1,8,4.4,-5.2%,-21%,-21,-26%,/
Cc1ccc(N(CC(=O)NCc2ccccc2)C(=O)CCC(=O)Nc2ccccn2)cc1,-21,-2.6,/,5%,-1,-7%,-6%[15.4 µM]
CC(C)c1nc(SCC(=O)Nc2ccc(C(=O)O)cc2)c2c3c(sc2n1)CCCC3,-15,0.0,-4.2%,-19%,-4,-6%,1%[15.4 µM]
CCN1C(=O)C(CC(=O)Nc2ccc(OC)cc2)N(CCN2CCOCC2)C1=S (stereo not given),18,-1.4,0.2%,12%,23,19%,4%
COCCNc1oc(-c2ccccc2Cl)nc1S(=O)(=O)c1ccc(C)cc1,12,/,-15%,-8%,/,/,-1%
COc1ccc(CNC(=O)Cn2cc([N+](=O)[O-])cn2)cc1,-14,/,/,8%,/,/,-6%[15.4 µM]

More records follow:
Structure,TRPML1 inh,Menin-MLL FL inh,ClpP mod,gsp antag,TRPV1 potentiator,Sfp inh,gsp agonist
CC(C)CCC(=O)N1CCC(N2CCC(C(=O)NCc3ccccn3)CC2)CC1,-11,-8.3,/,-8%,-2,24%,16%
CC(=O)N/C(=C\c1ccc(Cl)cc1)C(=O)O,13,-2.4,-1.6%,6%,-12,12%,5%
COc1cc2[nH]c(=S)nc(NCc3cccnc3)c2cc1OC,30,-11,-1.5%,-14%,?,-28%,?
N#Cc1cc2c(nc1SCC(=O)Nc1sc3c(c1C#N)CCC3)CCCCC2,-10,2.2,22%,0%,30,8%,?
COc1ccc(N(C)C(=O)CC2(CC(=O)O)CCCCC2)cc1,-3,2.6,-25%,-3%,8,3%,-51%[inhibitor]
CCOC(=O)CCSc1nnc(-c2cccnc2)n1-c1ccccc1OC,17,2.1,-1.0%,3%,9,11%,20%
Cc1occc1C(=O)Nc1cc(=O)n(C)c(=O)n1C,10,-2.3,0.2%,-4%,-9,21%,19%
CCOc1cc(C(=O)CCC(=O)OCC(=O)Nc2ccc(C)c(S(=O)(=O)N(C)C)c2)ccc1O,-7,3.1,/,-2%,3,11%,?

Remaining list, next part
Structure,TRPML1 inh,Menin-MLL FL inh,ClpP mod,gsp antag,TRPV1 potentiator,Sfp inh,gsp agonist
O=[N+]([O-])c1cccc(/C=C/c2nc3ccc([N+](=O)[O-])cc3[nH]2)c1,45,6.3,1.4%,-32%,-4,2%,?
CCN1CCC(=NNC(=O)c2ccco2)CC1,12,-1.0,-0.4%,-1%,-9,-18%,1%
c1ccn(-c2ccc(N3CCOCC3)cc2)c1,-9,3.1,-5.4%,7%,12,4%,3%
Cc1ccc(-c2nn(-c3ccccc3)cc2CSC(=N)N)cc1,0,2.9,-7.5%,6%,17,-21%,-4%
Cc1occc1C(=O)Nc1sc2c(c1C(N)=O)CCC(C(C)(C)C)C2 (stereo not given),-10,4.7,-29%,-11%,0,-3%,-4%
O=S1(=O)c2ccccc2N=NN1Cc1ccc(Cl)c(Cl)c1,/,5.7,/,/,28,56µM*,/
N#Cc1c(-c2ccccc2)nc(-c2cccnc2)[nH]c1=O,-20,0.6,?,15%,-5,18%,-9%[15.4 µM]
CCc1ccccc1NC(=O)N1C2CCCC1CC(NC(C)=O)C2 (stereo not given),4,4.2,-1.5%,11%,6,15%,1%

An excerpt of these results, with two lines to a compound:
Order of results: TRPML1 inh, Menin-MLL FL inh, ClpP mod, gsp antag, TRPV1 potentiator, Sfp inh, gsp agonist
- Cc1occc1C(=O)Nc1sc2c(c1C(N)=O)CCC(C(C)(C)C)C2 (stereo not given)
 : -10, 4.7, -29%, -11%, 0, -3%, -4%
- Cc1ccc(-c2nn(-c3ccccc3)cc2CSC(=N)N)cc1
 : 0, 2.9, -7.5%, 6%, 17, -21%, -4%
- c1ccn(-c2ccc(N3CCOCC3)cc2)c1
 : -9, 3.1, -5.4%, 7%, 12, 4%, 3%
- O=S1(=O)c2ccccc2N=NN1Cc1ccc(Cl)c(Cl)c1
 : /, 5.7, /, /, 28, 56µM*, /
- CCN1CCC(=NNC(=O)c2ccco2)CC1
 : 12, -1.0, -0.4%, -1%, -9, -18%, 1%
- N#Cc1c(-c2ccccc2)nc(-c2cccnc2)[nH]c1=O
 : -20, 0.6, ?, 15%, -5, 18%, -9%[15.4 µM]

Source: PubChem
